Assay outcomes (PubChem BioAssay)
Sa RN4220 lethal – growth inhibition of S. aureus RN4220, primary screen, OD600. 16 h. inhibition, % (concentration not given with the values). 330,000 tested, 0.33% active. AID 1259311, 2017;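 active means z-score of -3 or lower and OD600 up to 0.18 on both plates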;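 further: plate controls were untreated cells for no effect and reference antibiotic for full effect; stock transfer was 100 nL into about 80 µL; one replicate is shown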
PrP UTR inh – inhibition of PrP 5' UTR reporter expression; cell-based PrP 5' UTR mRNA reporter, plate reader; inhibition, % (no concentration beside the values); 340,000 tested, 0.35% active;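 active means every replicate at 50% or more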;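 further: 0 = median of the neutral control wells; tested in H4 reporter cells; numbers are from one replicate; inactives centre near -14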
BJeLR lethal – MLPCN primary cell-based screen for lethality selective to Ras in HRASV12 cells | BJeLR (HRASV12) viability, CellTiter-Glo ATP luminescence, 48 h; reference of the scale not given here | inhibition, % (concentration not given with the values) | 300,000 tested, 0.17% active;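 active means replicate mean above 50%; inconclusive means above 50% but judged a plate artefact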;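 further: 50 nL library stock added to about 25 µL; numbers are from one replicate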
Sa ugtP lethal – growth inhibition of ugtP-null S. aureus, primary screen, RN4220 ugtP deletion, OD600; growth inhibition, % (no concentration beside the values); 330,000 tested, 0.54% active; AID 1259309, 2017; 16 h; some inactives read as strong as hits;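 active means z-score under -3 and OD600 up to 0.15 on both plates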;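 further: plate controls were untreated wells for no effect and antibiotic for full effect; wells of about 80 µL received 100 nL stock; the first replicate is given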
Autofluor counter – counter-screen for toxin protease inhibitors: compound fluorescence; compound autofluorescence counterscreen, microsphere flow cytometry; stronger effect = higher value; fluorescence intensity (test concentration not listed); 360,000 tested, 3.1% active; AID 624483;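 active means at least 3 SD above the mean of all compounds, about 16000 in these data; inconclusive means too few beads counted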;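 further: 100 nL of 1 mM stock went into each well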
Mtb hypoxia rep – PubChem AID 1159583; fluorescence inhibition, % (no concentration beside the values); M. tuberculosis hypoxia-regulated fluorescent reporter, fluorescence; 300,000 tested, 0.1% active;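 active means 35 to 45% if threefold the growth effect, above 45% if 1.5-fold the growth effect; inactive means the rest, general growth blockers included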;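 further: wells of about 50 µL received 100 nL stock; 0% = vehicle wells and 100% = reference inhibitor wells; whole bacteria with a GFP reporter of the hypoxia response; strong numbers were not always called active; many hits fall short of the cut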
Mtb hypoxia rep growth – further read-out of Mtb hypoxia rep, marked with its call; growth inhibition, %; measured here: M. tuberculosis growth (absorbance);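 0% = vehicle and 100% = reference antibiotic; read after six days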
Starred values were filed as active, the others as inactive; ? = inconclusive; · = no result given.

SMILES	Sa RN4220 lethal	PrP UTR inh	BJeLR lethal	Sa ugtP lethal	Autofluor counter	Mtb hypoxia rep	Mtb hypoxia rep growth
CC1=C(C(=O)O)N2C(=O)C(NC(=O)c3ccccc3Cl)C2SC1 (stereo not drawn)	9.0	-26	11	12	3646	3	-13
COc1ccccc1S(=O)(=O)Cc1ccc(C(=O)NC(C)c2ccc3c(c2)OCCO3)o1 (stereo not drawn)	3.2	18	5	4	15701	-1	-6
CC(=NNC(=S)NC1CCCCC1)c1ccc(Cl)c(Cl)c1	2.0	·	·	8	·	-8	0
Cc1ccc2[nH]c(CCN(C)C)c(CC#N)c2c1	3.0	-21	7	8	8050	6	3
COC(=O)C1=C(C)OC(N)=C(C#N)C1c1cc(C)sc1C (stereo not drawn)	4.0	-3	-6	1	3101	·	·
OCC[C@H]1C[C@H](O)[C@@H](O)[C@@]2(CCCCO2)O1	·	-17	7	·	3985	·	·
Cc1cccc(-n2c(-c3ccoc3C)n[nH]c2=S)c1	6.7	-5	4	13	2404	14	1
Cc1ccc2nc(Cl)c(C=NNC(=O)CN3CCOCC3)cc2c1	0.3	·	·	0	·	1	14
Cc1ccc(SCc2ccc(C(=O)Nc3cc([N+](=O)[O-])ccc3C)cc2)cc1	-1.7	-7	1	-8	8893	1	-2
C/C(=N\N1CCCCCC1)c1c(O)n(C)c(=O)n(C)c1=O	1.7	·	-4	8	·	6	7
CCn1cc(C2=NC(C)(C)CO2)c2ccccc21	5.0	-22	5	9	7910	0	4
COc1ccc(N2CCN(S(=O)(=O)CCNC(=O)/C=C/c3ccc4c(c3)OCO4)CC2)cc1	-1.2	-9	-3	9	4940	3	-2
O=C(NC(Cc1ccccc1)c1ccc2c(c1)OCCCO2)c1ccccc1 (stereo not drawn)	6.2	-18	2	0	16064	5	1
O=C(CSc1nnc(COc2cccc3cccnc23)o1)c1ccc(F)cc1	1.6	-10	-18	-8	8419	14	10
Cc1cc(=O)oc2cc(OCC3CC(c4ccc(Cl)cc4)=NO3)ccc12 (stereo not drawn)	5.0	-6	-8	-20	22029*	-3	7
CC1CCN(C(=O)Cn2cc(C#N)c3ccccc32)CC1	3.7	-18	4	9	3106	21	14
COc1ccc(Cn2c(-c3ccc(OC)cc3)nc3ccccc32)cc1	0.3	-12	-9	31	7916	4	1
CN(C)CCN(C(=O)c1ccc2c(c1)CCCC2)c1nc2c(F)cccc2s1	-3.7	-25	-7	-7	5574	-6	2
Cc1ccc(NS(=O)(=O)c2cccc(C(=O)N3CCCCCCC3)c2)cc1	3.7	10	6	-6	?	-8	-7
O=C1CC(c2ccccc2)Cc2nc(NC3CC3)ncc21 (stereo not drawn)	0.7	-10	9	6	3123	2	-1
CCCOC(=O)c1ccc(S(N)(=O)=O)o1	5.0	-12	-2	6	1980	4	5
COC(C[C@@H](O)C[C@H](O)[C@@H](C)OCc1ccccc1)OC	·	-15	1	·	4004	·	·
COc1cc2c(cc1OC)C(c1cccs1)N(C(=O)c1ccncc1)CC2 (stereo not drawn)	1.9	-7	14	0	2236	7	10
CCCCc1nc(Cl)c(C#N)c2c1CSC(C)(C)C2	2.6	8	1	13	2006	7	-1
CCOc1ccc(C(=O)NCc2cccnc2)cc1[N+](=O)[O-]	3.9	-18	-3	11	4663	12	0
CC(=O)Nc1ccc(S(=O)(=O)NCCC(=O)OCC(=O)c2ccc(F)c(F)c2)cc1	-1.9	-15	-6	-1	5870	-14	-3
Cc1ccc(NC(=S)NN=C2CCCCC2C)cc1 (stereo not drawn)	1.6	·	·	7	·	2	10
CC(C)CNC(=O)C(=O)NCc1ccccn1	-1.1	-37	-3	-7	2901	-3	-1
Cc1ccc(CCNC(=O)C2CCN(S(=O)(=O)c3ccc4c(c3)NC(=O)CO4)CC2)cc1	·	-15	-3	·	5812	·	·
COc1cccc(C2CC(c3ccc(Cl)cc3)Nc3nc(N)nn32)c1 (stereo not drawn)	2.6	-18	-12	-4	6323	·	·
N#Cc1nc(-c2ccccc2)oc1NCC1CCCO1 (stereo not drawn)	6.4	-18	13	1	2420	14	6
c1cc2c(cc1Cn1cnnn1)OCO2	-0.7	-17	1	-4	4921	·	·
O=C(NCC(=O)N1CCN(C(=O)c2ccccc2)CC1)c1ccccc1	-4.0	-44	·	-3	4204	-4	-1
COc1ccc(C(=O)NNC(=S)NC(=O)c2ccccc2)cc1	·	4	-7	·	3433	·	·
CCn1ncc(Cl)c1C(=O)NC(=S)Nc1c(C)cc(C)cc1[N+](=O)[O-]	·	-9	3	·	7250	·	·
Cc1cc(C)n(N=Cc2ccccc2)c(=O)c1C#N	7.3	·	·	0	·	4	9
Cc1ccc(-c2cc(-c3ccc(C)cc3)[n+](C)o2)cc1	2.3	-22	13	2	8428	9	4
CC1SC(=C(C#N)C(=O)NCc2ccco2)N(Cc2ccco2)C1=O (stereo not drawn)	7.9	·	·	12	·	6	7
CCCn1nc(C(=O)Nc2nnc(C3CC3)s2)c2ccccc2c1=O	4.8	-18	·	-1	2792	-2	-4
O/N=C/c1ccc(OCc2ccccc2F)c(Cl)c1	·	-123	-7	·	1971	·	·
Cn1cccc1CNC(=O)Nc1ccc(Cl)c(Cl)c1	-9.1	-41	2	-31	2709	4	9
Cc1cccc(C)c1NC(=O)NN=C1CCCCC1	5.2	-17	-5	3	·	11	7
C#CC1(O)CC(C)N(C)C(C)C1 (stereo not drawn)	4.5	-16	-9	12	6896	10	4
COc1ccc(CN(CC(=O)NCc2ccc3c(c2)OCO3)C(=O)c2csnn2)cc1	2.3	-29	-16	-2	3657	5	-2
CCn1c(SCC(=O)Nc2ccc3c(c2)OCO3)nnc1-c1cnccn1	1.9	-7	1	0	?	11	0
Fc1ccc(C=NNC(=S)NCCc2ccccc2)cc1F	-0.2	·	·	-3	·	7	-8
CC(C)(C)NC(=O)NC(=O)COC(=O)c1cccc(S(=O)(=O)N2CCCCC2)c1	7.5	-28	-17	2	2102	6	5
N#Cc1c(-c2ccc([N+](=O)[O-])cc2)nc2n(c1=O)CCS2	-3.6	-17	-12	-3	3805	2	7
O=[N+]([O-])c1ccc(C=C2CCC(C3=CCCC3)=C2N2CCOCC2)cc1	8.0	·	·	4	·	6	1
O=C1CCC([N+](=O)[O-])C(c2ccc(Cl)cc2Cl)N1 (stereo not drawn)	2.2	-27	5	7	2937	·	·
CCOc1ccc(C(=O)COC(=O)c2cc([N+](=O)[O-])ccc2N2CCOCC2)cc1	3.7	-23	18	-1	?	1	6
Fc1ccc(Cl)cc1/C=N/n1cnnc1SCc1ccccc1	·	-11	-11	·	14444	·	·
[2H]C(CCOS(N)(=O)=O)c1ccc(C(C)(C)C)cc1 (stereo not drawn)	11	32	7	5	4122	3	8
CC(=O)Nc1cccc(C(=O)OC(C)C(=O)NCc2ccc3c(c2)OCO3)c1 (stereo not drawn)	3.3	-5	-5	1	?	5	-6
COc1ccc(Cl)cc1NC(=O)CN(C)C(=O)CCSc1ccc(C)cc1	2.2	-15	·	-6	?	3	16
CCC(=O)Nc1ccc(-c2nc3ccccc3c(=O)o2)cc1	8.6	-7	2	-1	4788	14	4
CN1CCN(S(=O)(=O)c2ccc(Nc3ccc(F)cc3)nc2)CC1	0.2	-11	8	0	7303	0	11
N/C(=N\OC(=O)c1ccc([N+](=O)[O-])cc1)c1cccnc1	·	-42	-5	·	2124	·	·
COc1ccccc1CC(=O)Nc1c[nH]c(=O)[nH]c1=O	2.0	-3	4	-3	2572	2	11
CCCCN(CC)S(=O)(=O)c1ccc(C(=O)Nc2nnc(COC)o2)cc1	17	-11	9	1	3962	3	-2

Compound profiles, from the list above. Screens in order: Sa RN4220 lethal | PrP UTR inh | BJeLR lethal | Sa ugtP lethal | Autofluor counter | Mtb hypoxia rep | Mtb hypoxia rep growth
CCCCN(CC)S(=O)(=O)c1ccc(C(=O)Nc2nnc(COC)o2)cc1 in the list: 17 | -11 | 9 | 1 | 3962 | 3 | -2
N#Cc1c(-c2ccc([N+](=O)[O-])cc2)nc2n(c1=O)CCS2 in the list: -3.6 | -17 | -12 | -3 | 3805 | 2 | 7
CN1CCN(S(=O)(=O)c2ccc(Nc3ccc(F)cc3)nc2)CC1 in the list: 0.2 | -11 | 8 | 0 | 7303 | 0 | 11
O=C1CCC([N+](=O)[O-])C(c2ccc(Cl)cc2Cl)N1 (stereo not drawn) in the list: 2.2 | -27 | 5 | 7 | 2937 | · | ·
COc1ccccc1CC(=O)Nc1c[nH]c(=O)[nH]c1=O in the list: 2.0 | -3 | 4 | -3 | 2572 | 2 | 11

The listing picks up, repeating the three entries before the break.
SMILES	Sa RN4220 lethal	PrP UTR inh	BJeLR lethal	Sa ugtP lethal	Autofluor counter	Mtb hypoxia rep	Mtb hypoxia rep growth
N/C(=N\OC(=O)c1ccc([N+](=O)[O-])cc1)c1cccnc1	·	-42	-5	·	2124	·	·
COc1ccccc1CC(=O)Nc1c[nH]c(=O)[nH]c1=O	2.0	-3	4	-3	2572	2	11
CCCCN(CC)S(=O)(=O)c1ccc(C(=O)Nc2nnc(COC)o2)cc1	17	-11	9	1	3962	3	-2
COc1cccc(Nc2nc(-c3ccc4c(c3)OCCO4)cs2)c1	-5.8	-44	-2	-12	2647	·	·
C=CCn1c(-c2ccc3[nH]c(C)c(C)c3c2)n[nH]c1=S	1.8	-3	-1	-5	2215	·	·
COc1ccccc1-c1nc(-c2ccccc2)[nH]c(=O)c1C#N	3.0	-18	6	-2	2687	-16	-2
CCC/C(=N\NC(=O)CNC(=O)c1ccc(Cl)cc1)c1ccccc1	·	-33	1	·	4185	·	·
OCCN1CCN(C(=S)c2ccc(Br)cc2)CC1	6.0	3	3	7	21663*	5	1
CN(C)C(=O)c1ccc(NC(=O)c2ccc(-c3ccc(Cl)cc3)o2)cc1	·	-2	-10	·	6760	·	·
COc1ccc(C2=CC(=O)CC(C)(C)C2)cc1	13	-21	·	9	3448	13	0
Cc1ccnc(NC(=O)c2cc(-n3cnnc3)ccc2Cl)c1	0.3	4	4	3	22908*	21	3
CCOc1cc(C(=O)OCc2ccc(C(=O)OC)o2)cc(Br)c1OC	4.7	·	9	2	·	0	-7
O=C(c1cc2ncccn2n1)N1CCc2c([nH]c3ccccc23)C1c1ccccc1F (stereo not drawn)	5.7	-36	0	2	4484	0	5
COc1cc(O)cc(/C=C/c2ccccc2)c1	-1.0	-80	·	34	2967	24	3
CC(=O)c1c(C)[nH]c(C(=O)OCC(=O)N(CC(C)C)C2CCS(=O)(=O)C2)c1C (stereo not drawn)	1.2	-27	·	10	?	7	1
CC(C)NC(=S)NNC(=O)C12CC3CC(CC(C3)C1)C2	-2.4	-14	6	-9	24739*	-5	8
Cc1cc(C)n(-c2nc3ccccc3c(=O)n2OCc2ccc(F)cc2)n1	1.1	-9	-10	-2	5261	·	·
COc1ccc(F)cc1S(=O)(=O)N1CCC2(CC1)OCCN2S(=O)(=O)c1cccs1	6.0	-16	-7	6	5762	3	3
Cc1ccc(Sc2c(C)nn(C(=O)CNS(=O)(=O)c3ccc(F)cc3)c2C)cc1	6.2	-15	-2	8	2453	2	0
O=S(=O)(NCC(c1ccccc1)N1CCNCC1)c1ccc(Cl)cc1 (stereo not drawn)	-1.4	-24	2	-17	21805*	0	15
CC(C(=O)NCC1CC1)C1C[C@]1(C)C(NC(=O)OCc1ccccc1)c1ccccc1 (stereo partly drawn)	2.1	·	·	0	·	6	6
COC(=O)[C@@]12CCCCN1C(c1ccc(-c3ccc4c(c3)OCO4)c(OC)c1)C1C(=O)N(C)C(=O)C12 (stereo partly drawn)	2.6	·	·	-20	·	8	9
CN1CCN(C2Cc3ccc(Cl)cc3Sc3ccc(F)cc32)CC1 (stereo not drawn)	-5.1	·	5	-25	·	·	·
CNNC(=S)NCCC1=CCCCC1	4.8	-18	3	2	4683	8	8

This is a random part of the collection; overall some 4% were active at least once.
